T cruzi repl = T. cruzi replication inhibition | AID 1885 | actives 1.4% (n = 300,000) | T. cruzi beta-gal in NIH3T3, luminescence, 90 h | inhibition, % (no concentration beside the values);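 active means mean inhibition across valid replicates above about 55%, limit read from the data; inconclusive means mean below that limit but half or more replicates reach it; inactive means mean below it, under half of replicates reach it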;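 further: signal also drops with host cell toxicity which is not excluded here; 0% = plate median of DMSO wells and 100% = zero luminescence signal; higher percent means less beta-gal luminescence so fewer parasites; stock transfer was 50 nL into about 50 µL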
FGF22 binding = FGF22 (human) thermal shift binding | actives 1.5% (n = 340,000) | Q9HCT0 | calls only at 9.99 µM | recombinant FGF22 thermal shift, SYPRO orange fluorescence; percent of sucrose octasulfate shift, DMSO zero | AID 651658;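 active means melting point raised past a set limit in the mean and every replicate; inconclusive means no clear call; three in four hits are not shown here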
Target sequence (Q9HCT0 whole entry, looked up): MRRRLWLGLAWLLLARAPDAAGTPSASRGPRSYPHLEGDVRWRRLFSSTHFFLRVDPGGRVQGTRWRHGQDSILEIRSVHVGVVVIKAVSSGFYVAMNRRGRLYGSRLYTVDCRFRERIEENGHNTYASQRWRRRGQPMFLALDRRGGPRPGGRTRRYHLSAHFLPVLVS
Beta apoptosis = beta cell apoptosis inhibition | INS-1E cytokine-induced death, ATP luminescence, 48 h; percent of positive-control rescue, neutral wells zero | protection from apoptosis, % (concentration not given with the values) | actives 0.8% (n = 300,000) | AID 435005;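 active means all replicates at 75% or more, or half of them and the mean; inconclusive means half reach 75% but not the mean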;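 further: 0% = cytokine-treated negative control wells and 100% = positive control rescue; higher means more ATP so stronger rescue from cytokine killing; wells of about 40 µL received 100 nL stock; the first replicate is given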
Calb FLC = affects C. albicans growth with fluconazole | C. albicans CaCi-2 (fluconazole-resistant clinical isolate) + fluconazole, Alamar Blue growth, 48 h | growth inhibition, % (test concentration not listed) | actives 0.57% (n = 300,000) | AID 1979;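 active means most replicates above 75%; inconclusive means exactly half above 75%; inactive means most below 75%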;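 further: all wells also contain fluconazole at 8 µg/ml as a sub-toxic cotreatment; 0% = median of DMSO wells and 100% = median of geldanamycin control wells; wells of about 8 µL received 7.5 nL stock; the first replicate is given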
ALR H2O2 inh = human ALR oxidase inhibition via reduced H2O2; P55789; purified ALR, DTT oxidation, H2O2 HRP-luminol luminescence; inhibition, % (no concentration beside the values); actives 3.8% (n = 290,000); AID 485317;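 active means mean and each replicate at 75% or more; inconclusive means only one of the two met; inactive means neither met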;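 further: stock transfer was 7.5 nL into about 7.5 µL; 0% = neutral wells and 100% = wells with inactivated enzyme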
Target sequence (P55789 whole entry, looked up): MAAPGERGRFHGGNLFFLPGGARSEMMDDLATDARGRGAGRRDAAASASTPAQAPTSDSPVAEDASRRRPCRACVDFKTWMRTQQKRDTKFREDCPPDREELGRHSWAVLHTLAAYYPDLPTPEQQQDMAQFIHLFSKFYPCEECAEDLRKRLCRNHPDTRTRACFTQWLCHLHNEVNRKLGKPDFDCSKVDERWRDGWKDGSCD
Ecoli rRNA inh = selective bacterial rRNA inhibition in E. coli; GFP signal change (wild-type ribosome), % (concentration not given with the values); E. coli WT GFP vs humanized-ribosome RFP mutants, fluorescence, 24 h; hits give low values; DMSO median 0, no signal -100; AID 720706; actives 1.6% (n = 350,000);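 active means significant combined selectivity score with lowered wild-type GFP, culture density cut under 30%, mutant RFP and density less affected; inactive means any of these conditions unmet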; further: one replicate is shown; some compounds called inactive have numbers as strong as hits
AF4-AF9 inh = MLL-AF4/AF9 protein interaction inhibition | P42568 | AlphaScreen, biotin-AF4 peptide binding to FLAG-AF9 | AID 651704 | actives 0.47% (n = 350,000) | inhibition, % at 10 µM;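 active means every replicate reaching a set inhibition limit, whatever the replicate mean, cut at about 25% in these data; inconclusive means mean inhibition reaches that limit but some replicates miss it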;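 further: 0% = plate neutral control median and 100% = total signal loss; the record names both 10 and 1 µM as test concentration; the first replicate is given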
Target sequence (P42568 whole entry, looked up): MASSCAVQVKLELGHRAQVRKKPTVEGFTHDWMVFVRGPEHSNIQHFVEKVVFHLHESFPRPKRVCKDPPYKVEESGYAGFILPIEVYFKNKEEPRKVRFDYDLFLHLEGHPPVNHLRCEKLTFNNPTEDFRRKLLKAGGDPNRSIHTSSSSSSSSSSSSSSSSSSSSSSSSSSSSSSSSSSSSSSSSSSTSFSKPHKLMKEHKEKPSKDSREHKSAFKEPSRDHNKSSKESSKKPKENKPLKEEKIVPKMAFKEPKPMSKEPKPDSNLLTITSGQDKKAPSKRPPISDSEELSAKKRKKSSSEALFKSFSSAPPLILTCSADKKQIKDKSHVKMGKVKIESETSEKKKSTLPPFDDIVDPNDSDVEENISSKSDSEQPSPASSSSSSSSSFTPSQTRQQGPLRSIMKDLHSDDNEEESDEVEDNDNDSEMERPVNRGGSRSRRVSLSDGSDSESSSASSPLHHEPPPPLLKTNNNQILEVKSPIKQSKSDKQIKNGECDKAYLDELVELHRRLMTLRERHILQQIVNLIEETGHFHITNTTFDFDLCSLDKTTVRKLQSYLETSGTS
RanGTP-Imp inh = disruptors of Ran-importin-beta complex formation – biochemical, FRET, CFP-Ran, YFP-importin-beta, homogeneous, primary screen; inhibition, % (test concentration not listed); cell-free CFP-Ran/YFP-importin-beta FRET ratio; actives 1.1% (n = 300,000);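 active means most replicates above 15%; inconclusive means exactly half above 15%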;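 further: 0% = DMSO wells and 100% = Ran loaded with GDP instead of GTP; wells of about 40 µL received 100 nL stock; the first replicate is given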
Ecoli rRNA inh OD600 = second read-out of Ecoli rRNA inh, no call of its own (marks repeat the call); OD600 change, %; measured here: OD600 growth;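 optical density of the mix in the first replicate; 0 = DMSO median and -100 = no signal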
Ecoli rRNA inh RFP = second read-out of Ecoli rRNA inh, no call of its own (marks repeat the call); RFP signal change, %; measured here: RFP humanized mutant strains;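 first replicate; 0 = DMSO median and -100 = no signal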
Starred values were filed as active, the others as inactive; i = inactive; ? = inconclusive; . = not tested or not shown. Only part of the results is shown. The share of hits here may be higher or lower than overall.

SMILES	T cruzi repl	FGF22 binding	Beta apoptosis	Calb FLC	ALR H2O2 inh	Ecoli rRNA inh	Ecoli rRNA inh OD600	Ecoli rRNA inh RFP	AF4-AF9 inh	RanGTP-Imp inh
CCOC(=O)c1c(C)nsc1NC(=O)C1CCCCC1	1	i	-6	1	3	-32	-37	-6.7	-5.8	4.5
COc1cc(OC)cc(C(=O)Nc2ccccc2-c2nnn(CC(N)=O)n2)c1	-6	i	-5	16	-12	9	11	0.1	1.9	-3.4
O=S(=O)(NCC(c1ccc2c(c1)OCO2)N1CCOCC1)c1ccc(F)cc1 (centres undefined)	0	i	1	-10	.	0	10	-1.7	-0.4	-0.7
CCC(C(=O)Nc1cc(C)cc(C)n1)c1ccccc1 (centres undefined)	5	i	.	-3	-6	-26	-32	-3.5	-2.9	2.7
Cc1cc(=O)oc2cc(OCC(=O)N3CCN(C(=O)C4COc5ccccc5O4)CC3)c(Cl)cc12 (centres undefined)	16	i	.	11	1	13	16	4.0	-4.6	0.3
COc1ccc(OC)c(C(C)NC(=O)Nc2cccc(C(C)=O)c2)c1 (centres undefined)	.	i	-1	-26	.	-9	-10	2.2	-0.5	0.5
COc1cc(Cl)c(C)cc1NC(=O)COC(=O)c1cc[n+]([O-])cc1	-11	i	-1	22	-1	22	6	-1.6	-3.9	-5.8
Cc1[nH]c2ccccc2c1/C=N/NC(=O)CNC(=O)Cc1ccccc1	10	i	1	-36	32	-3	1	-1.2	1.7	1.6
CC1CC(C(F)F)n2nc(C(=O)Nc3sc4c(c3C#N)CCC(C(C)(C)C)C4)nc2N1 (centres undefined)	-5	.	-4	-6	-25	.	.	.	.	0.4
Fc1ccc(Nc2nc(-c3ccncc3)nc3ccccc23)cc1F	?	i	8	-12	-5	4	2	-2.2	-1.3	7.1
COc1ccc(C(=O)NN(C)c2nc(C(F)(F)F)nc3ccccc23)cc1	-3	i	53	-14	-10	7	-6	-3.1	-8.4	2.9
CCOC(=O)COc1ncn(-c2ccccc2)n1	-18	.	-8	?	-12	.	.	.	.	?
Cc1cc(C(=O)CN2C(=O)NC3(CCCCC3)C2=O)c(C)n1Cc1ccco1	-5	i	-2	-7	.	-2	-13	3.5	-1.9	-0.8
CCCCNC(=O)Cn1cnc2ccc(S(=O)(=O)N3CCC(C)CC3)cc2c1=O	-7	i	-5	-4	-4	6	11	-3.5	-1.8	2.6
O=C(Cn1c2[n+](c3ccc(C(F)(F)F)cc31)CCCCC2)c1cccc([N+](=O)[O-])c1	4	i	1	-15	0	4	2	3.1	2.2	4.5
CCCCCCCCC(=O)N/N=C/c1cccc(Br)c1	-9	i	13	0	0	4	6	3.6	-0.3	-1.4
CCCCNC(=O)CSc1nccn1Cc1ccccc1	-10	i	4	25	12	13	10	3.5	-26	-0.7
CN(C)CCNC(=O)c1cccc(S(=O)(=O)Nc2ccc(F)cc2)c1	6	i	.	-2	-4	15	17	-2.0	-7.0	0.3
CC(C)(C)C(=O)/C=C1\SCC(=O)N1CC(=O)N1CCN(c2ccccc2)CC1	.	i	-1	.	45	6	6	5.5	0.7	.
COc1ccccc1CN1CCC(CNS(=O)(=O)c2cc(-c3cc(C)no3)ccc2OC)CC1	23	i	-2	0	0	6	5	6.4	-1.4	0.2
Cc1cc(C)cc(NC(=O)CN2CCN(c3ccccc3)CC2)c1	17	i	-10	7	22	-11	-29	-2.6	4.3	5.0
Cc1cc(C)cc(NC(=O)CSc2nc3[nH]c(=O)cc(O)c3s2)c1	-8	i	2	-3	98*	8	3	4.3	-4.5	1.4
CC1CN(S(=O)(=O)N(C)C)CCN1S(=O)(=O)N(C)C (centres undefined)	-12	i	-11	16	.	10	7	-8.2	2.3	1.1
O=C(Nc1ccc(S(=O)(=O)NCc2cccnc2)cc1)c1ccccc1Cl	-65	.	12	19	-23	.	.	.	.	2.2

Compound profiles, from the list above. Values in the order: T cruzi repl, FGF22 binding, Beta apoptosis, Calb FLC, ALR H2O2 inh, Ecoli rRNA inh, Ecoli rRNA inh OD600, Ecoli rRNA inh RFP, AF4-AF9 inh, RanGTP-Imp inh
Results for CCCCCCCCC(=O)N/N=C/c1cccc(Br)c1 = -9, i, 13, 0, 0, 4, 6, 3.6, -0.3, -1.4
Results for CC(C)(C)C(=O)/C=C1\SCC(=O)N1CC(=O)N1CCN(c2ccccc2)CC1 = ., i, -1, ., 45, 6, 6, 5.5, 0.7, .
Results for CCCCNC(=O)Cn1cnc2ccc(S(=O)(=O)N3CCC(C)CC3)cc2c1=O = -7, i, -5, -4, -4, 6, 11, -3.5, -1.8, 2.6
Results for Cc1cc(C(=O)CN2C(=O)NC3(CCCCC3)C2=O)c(C)n1Cc1ccco1 = -5, i, -2, -7, ., -2, -13, 3.5, -1.9, -0.8
Results for CCCCNC(=O)CSc1nccn1Cc1ccccc1 = -10, i, 4, 25, 12, 13, 10, 3.5, -26, -0.7

Next part.
SMILES	T cruzi repl	FGF22 binding	Beta apoptosis	Calb FLC	ALR H2O2 inh	Ecoli rRNA inh	Ecoli rRNA inh OD600	Ecoli rRNA inh RFP	AF4-AF9 inh	RanGTP-Imp inh
CCn1ccc(C(=O)N2CCOCC2)n1	-11	i	-4	27	.	-10	2	-3.3	-2.1	-2.0
O=C(Nc1ccc(-n2cnnn2)cc1)C(c1ccccc1)c1ccccc1	-10	i	10	-23	-3	9	12	1.8	-3.9	0.4
CCNC(=O)NNC(=O)C1CC(c2cccs2)=NO1 (centres undefined)	-19	i	-1	1	.	25	15	-1.5	-1.4	4.1
COc1ccc(Cl)cc1NC(=O)CN1CCN(Cc2ccccc2)CC1	15	i	-7	-21	-7	-13	-7	0.3	7.6	?
COc1cc(C(=O)Nn2c(O)c(C3=c4ccccc4=NC3=O)sc2=S)ccc1O	-9	i	-5	0	14	-6	2	4.2	5.9	-1.6
COc1ccc(N(CC(=O)N2CCOCC2)S(C)(=O)=O)c(OC)c1	-14	i	-3	-8	-19	10	20	3.0	1.4	-0.5
CC(C)(C)C(=O)NC(=S)Nc1ccc(Cl)c(C(=O)O)c1	0	i	3	9	-21	4	-2	-1.9	-2.5	.
COc1cccc(CNC(=O)CCC2CCCN(C(=O)c3csc(C(C)C)n3)C2)c1 (centres undefined)	-6	i	3	4	-9	-3	-1	-0.5	-17	-2.6
CO/N=C/CC(=O)c1cnc(-c2ccccc2)s1	-13	i	-3	6	-17	1	-4	1.5	2.9	5.8
O=C(COc1ccccc1Cl)Nc1ccc(C(=O)O)cc1NC(=O)COc1ccccc1Cl	-27	i	-3	5	6	.	.	.	-1.5	2.0
COc1cc(C=O)ccc1OCCOCCOc1ccc(Cl)cc1Cl	20	.	-3	7	-7	.	.	.	.	-1.1
COc1cccc(NC(=O)Nc2cnccn2)c1	-17	i	-2	-9	-12	0	2	-3.2	-9.3	-2.1
CC(=O)c1cccc(NC(=O)COc2ccccc2)c1	-19	.	2	-30	-13	.	.	.	.	-2.0
O=C(CNC(=O)C(c1ccccc1)c1ccccc1)OCC(=O)c1cccs1	-11	.	-10	17	.	.	.	.	.	-1.8
NS(=O)(=O)c1cc(C(=O)OCC(=O)Nc2ccc(N3CCCCC3)cc2)ccc1Cl	3	i	-4	-7	16	-5	-11	18	-1.0	3.4
CNc1nc(Nc2ccc(C(C)=O)cc2)nc(OC(C(F)(F)F)C(F)(F)F)n1	.	.	4	-10	100*	.	.	.	.	-2.1
O=C(CSc1nc2nn(-c3ccccc3)c(=O)c-2c2n1CCCCC2)NCCc1ccccc1	13	i	2	40	-2	1	-6	-0.2	3.0	-3.3
O=C(OCC(=O)N1CCN(c2ccccc2)CC1)c1ccccc1NCCO	14	i	0	-4	63	-2	-6	-3.3	-19	1.4
Cc1ccc(Nc2nc(C(=O)N3CCC(C(=O)NCCN4CCOCC4)CC3)cs2)cc1	-14	.	-4	2	9	-3	2	-2.9	.	0.7
COc1ccc(-c2nc(SC(C)C(=O)NCC3CCCO3)n[nH]2)cc1 (centres undefined)	1	i	4	-4	-3	-2	7	-3.9	6.0	0.8
O=C(NC(=S)Nc1ccccc1Br)c1ccco1	-16	i	5	0	.	-1	-10	-2.3	-1.0	3.9
O=C(N=C1SC2CS(=O)(=O)CC2N1c1ccc(F)cc1F)C1CC1 (centres undefined)	-1	i	1	0	-6	4	12	-0.4	-0.9	7.8
CN(CC(=O)Nc1ccc(F)c(F)c1F)C(=O)CCCSc1nc2ccccc2[nH]1	0	i	0	-6	4	2	-11	-1.9	?	.
COC(=O)c1c(NC(=O)C2CC=CCC2C(=O)O)sc(C)c1C (centres undefined)	-4	.	0	-3	-2	.	.	.	.	0.5

Grouped by structure, those above containing a tert-butyl group.
SMILES	T cruzi repl	FGF22 binding	Beta apoptosis	Calb FLC	ALR H2O2 inh	Ecoli rRNA inh	Ecoli rRNA inh OD600	Ecoli rRNA inh RFP	AF4-AF9 inh	RanGTP-Imp inh
CC1CC(C(F)F)n2nc(C(=O)Nc3sc4c(c3C#N)CCC(C(C)(C)C)C4)nc2N1 (centres undefined)	-5	.	-4	-6	-25	.	.	.	.	0.4
CC(C)(C)C(=O)/C=C1\SCC(=O)N1CC(=O)N1CCN(c2ccccc2)CC1	.	i	-1	.	45	6	6	5.5	0.7	.
CC(C)(C)C(=O)NC(=S)Nc1ccc(Cl)c(C(=O)O)c1	0	i	3	9	-21	4	-2	-1.9	-2.5	.

Carrying on.
SMILES	T cruzi repl	FGF22 binding	Beta apoptosis	Calb FLC	ALR H2O2 inh	Ecoli rRNA inh	Ecoli rRNA inh OD600	Ecoli rRNA inh RFP	AF4-AF9 inh	RanGTP-Imp inh
Cc1ccc(/C=N/N2CCN(c3ccccn3)CC2)cc1	-8	i	-3	7	-4	3	-3	-2.1	16	-3.5
Cc1c(C(=O)Nc2ccc(F)c(F)c2)oc2ccc(S(=O)(=O)N3CCCCC3)cc12	45	i	14	10	-6	5	9	1.1	-3.0	1.9
O=C(CSc1ccc(Cl)cc1)N1CCOCC1	0	.	-6	1	-7	.	.	.	.	4.7
Cc1ccc(C(=O)Cn2c(NCCO)nc3ccccc32)cc1	-4	.	-1	-3	.	.	.	.	.	2.6
CCOC(=O)c1c(NC(=O)/C=C/C(=O)O)sc(C)c1-c1ccc(C)c(C)c1	19	i	.	47	98*	-32	-48	-6.3	-1.5	7.7
Cc1ccccc1NC(=O)CSc1ccc(-c2ccc(-n3cccn3)cc2)nn1	-24	i	.	-1	-19	2	5	0.3	-1.4	-0.3
CC(=O)Nc1ccc(SC[C@H](C)CN2CC[C@H](O)CCC2=O)cc1	.	i	-1	.	98*	12	-1	-6.4	-12	.
C=CCO/N=C(/C)c1ccc(Oc2cnccn2)cc1	-4	i	1	-6	-11	5	5	0.4	0.1	-4.4

Compound activity as filed in PubChem.
